ClpP mod: qHTS Assay for Activators of ClpP; Potency, µM (doses to about 57.5 µM), for the others: at the highest dose activity change, negative = active; purified B. subtilis ClpP, FRET peptide cleavage, 20 min; hit rate 1.9% among 340,000; ATP-dependent Clp protease proteolytic subunit (Bacillus subtilis (strain 168)), P80244; active = well fitted falling curve with a large enough effect; inconclusive = small, poorly fitted or top-dose-only effect; inactive = no such curve, though single readings can be large or run the other way; note: potency is the fitted concentration of half-maximal effect; the source files actives as falling curves though it sought activators and does not explain the sign; nearly all actives have a fitted effect of over 65% in size; many hits overshoot -100%
Target sequence (P80244 whole entry, looked up): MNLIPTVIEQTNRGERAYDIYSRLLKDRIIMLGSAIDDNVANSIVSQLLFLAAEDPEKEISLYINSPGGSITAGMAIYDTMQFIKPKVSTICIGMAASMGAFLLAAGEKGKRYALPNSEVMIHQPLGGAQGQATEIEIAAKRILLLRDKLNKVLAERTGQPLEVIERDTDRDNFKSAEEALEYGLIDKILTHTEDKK
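Purified B. subtilis ClpP, 10 microg/mL final in Tris/HCl pH8 with KCl, BSA, glycerol and Tween-20, cleaved an Abz/nitrotyrosine-quenched decapeptide. Fluorescence (ex 320, em 430) was read at 0 and 20 min at room temperature. Delta was normalized to 5.8 microM ADEP and DMSO/no-enzyme controls.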
TRPML1 ag: human mucolipin-1 channel agonism | activation, % (test concentration not listed) | Q9GZU1 | hit rate 0.12% among 410,000 | TRPML1-expressing cells, Ca2+ dye fluorescence, FDSS; host cell line not named in the record; reference of the full effect not given here; in the data active = activation above about 50%; inconclusive = about 30% to 50%; inactive = below about 30%; note: 0% is about no effect; the text of the record puts the active cut at 80%
Target sequence (Q9GZU1 whole entry, looked up): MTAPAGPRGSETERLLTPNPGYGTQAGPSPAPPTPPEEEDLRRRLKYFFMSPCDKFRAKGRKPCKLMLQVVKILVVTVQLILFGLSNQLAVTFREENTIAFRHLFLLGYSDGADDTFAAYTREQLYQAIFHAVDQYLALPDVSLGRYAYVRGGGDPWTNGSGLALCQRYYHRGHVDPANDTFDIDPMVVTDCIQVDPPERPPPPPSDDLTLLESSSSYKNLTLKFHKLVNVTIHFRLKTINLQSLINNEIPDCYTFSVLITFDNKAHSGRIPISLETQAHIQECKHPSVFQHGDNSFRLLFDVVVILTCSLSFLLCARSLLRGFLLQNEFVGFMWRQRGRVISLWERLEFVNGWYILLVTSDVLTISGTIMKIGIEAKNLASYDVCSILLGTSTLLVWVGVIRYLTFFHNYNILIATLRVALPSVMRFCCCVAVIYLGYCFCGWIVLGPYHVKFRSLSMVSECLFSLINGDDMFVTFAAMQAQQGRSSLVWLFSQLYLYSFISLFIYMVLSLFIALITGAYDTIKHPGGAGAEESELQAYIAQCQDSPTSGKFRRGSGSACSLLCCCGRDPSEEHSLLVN
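In this qHTS format, compounds were pin-transferred onto Ca8-dye-loaded TRPML1-DL cells induced with Tet overnight, and intracellular Ca2+ fluorescence was recorded kinetically for 110 s after a 10 s baseline. A subsequent 4uM final 54-4 (EC80) addition followed by a second 110 s read served as the antagonist phase.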
gsp ag: activates gsp, the McCune-Albright syndrome mutation; gsp mutant cells, cAMP HTRF, 30 min; control for the full effect not named in the record; Potency, µM (series often up to 76.9 µM), for inactives: top-dose activation (cAMP increase), actives largely listed as activators; hit rate 0.13% among 340,000; AID 624287; active = well fitted activation curve with a large enough effect; inconclusive = small, poorly fitted or top-dose-only effect, or another doubt; inactive = no such curve, though single readings can be large or run the other way; cell line not stated here;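 note: phosphodiesterase inhibitor Ro 20-1724 added with compounds to block cAMP breakdown; potency is the fitted concentration of half-maximal effect; nearly all actives have a fitted effect of over 60% in size; about a fifth of the inactives were tested at one dose only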
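Cells in DMEM/10% FBS with G418 were pretreated with compounds in DMSO plus […] (300 uM stock) for 30 min at 37C. cAMP was measured by HTRF (cAMP-d2 plus anti-cAMP antibody-K) after 30 min at room temperature.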
TRPML1 inh: human mucolipin-1 channel inhibition. Q9GZU1. TRPML1-inducible cells, Ca2+ dye fluorescence, FDSS; hits give low values; inhibition of EC80 agonist-evoked calcium signal. activity change, negative = inhibition, % (no concentration beside the values). hit rate 0.02% among 390,000. AID 624415; in the data active means activity change below about -50%; inconclusive means about -30% to -50%; inactive means above about -30%;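 note: stimulus is agonist 54-4 at its EC80 concentration; % is set by controls: 0 for no effect and ±100 for the full control effect; compound concentration not given in the record; the text of the record puts the active cut at -80%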
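Tet-induced TRPML1-DL cells loaded with Ca8 no-wash calcium dye were read kinetically on FDSS. Compound addition was followed by EC80 agonist 54-4 (4 uM final); inhibition was read over 110 s.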
gsp antag: antagonists of gsp mutant (McCune-Albright syndrome); gsp-mutant cells, cAMP HTRF, 30 min; control for the full effect not named in the record; Potency, µM (top dose mostly 76.9 µM), without a hit: at the highest dose activity change, negative = inhibition, actives largely listed as inhibitors; hit rate 0.4% among 340,000; AID 624288; active = falling curve of any shape with a large fitted effect; inconclusive = falling curve, mostly with a smaller effect; inactive = flat or rising curve; cell line not stated here;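 note: intracellular cAMP measured with PDE inhibitor Ro 20-1724 present during compound exposure; potency is the fitted concentration of half-maximal effect; % is set by controls: 0 for no effect and ±100 for the full control effect; nearly all actives have a fitted effect of over 65% in size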
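Cells, 2000/well, grown 16–24 h in DMEM 10% FBS with 0.5 mg/ml G418, then compounds plus […] (300 uM addition stock), 30 min at 37C. cAMP read by HTRF (cAMP-d2 and anti-cAMP antibody-K in lysis buffer) after 30 min RT.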
Menin-MLL FL inh: inhibitors of human menin-MLL interaction, wild-type MLL peptide. AID 1766. 290,000 tested, under 10 active. FP activity change, % at 61.4 µM. Fluorescence polarization, fluorescein-MLL peptide displacement from menin; inconclusive = falling polarisation curve, or a change in total fluorescence; inactive = total fluorescence flat and polarisation flat or rising; no compound was filed as active; the % refers to the polarisation; negative = inhibition;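 note: % of control where 0% means no effect; inhibitors lower the polarisation; unlabelled MLL peptide was the positive control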
* marks the source's active call; other numbers are inactive results; ? = inconclusive; . = no result given; [ ] = dose if it differs, or a comment.

No.	compound	ClpP mod	TRPML1 ag	gsp ag	TRPML1 inh	gsp antag	Menin-MLL FL inh
1	O=C(COC(=O)CCC1CCCC1)Nc1cc(S(=O)(=O)N2CCOCC2)ccc1Cl	.	7.5	25.7%[15.4 µM]	-2.3	4.6%	.
2	COc1ccc(NC(=O)N(C)C[C@H]2Oc3c(NS(=O)(=O)c4cn(C)cn4)cccc3C(=O)N([C@H](C)CO)C[C@@H]2C)cc1	-4.7%	-0.2	.	6.6	8.1%	.
3	Nc1nnc(SCc2c(F)cccc2Cl)s1	.	1.3	14.9%	48.4	-4.8%	0.6
4	COc1ccc2sc(-c3ccc(SC)cc3)c(/C=C/c3ccc(OC)c(OC)c3)c2c1	28.1%	-0.4	27.5%	1.7	8.6%	.
5	O=C(CN1CCN(Cc2ccc(F)cc2Cl)C1=O)NCc1cccs1	.	-1.0	16.5%	47.7	5.6%	-1.3
6	CC12CCC(=O)N1C(C(=O)NNC(=O)COc1ccccc1F)CS2 (stereo not drawn)	0.8%	-0.3	-3.1%	0.9	1.3%	.
7	O=C(CSc1nc(N2CCCCC2)nc(N2CCCCC2)n1)c1ccccc1	-2.0%	0.0	?	-2.7	-2.6%	0.9
8	COC(=O)C(C)N(C(=O)c1cccc(Cl)c1)c1c(C)cccc1C (stereo not drawn)	-0.7%	1.9	-19.9%	-7.6	-10.4%	8.5
9	CSCCC(NC(=O)c1ccccc1Br)C(=O)N1CCC(C)CC1 (stereo not drawn)	.	0.3	-22.5%	5.4	6.3%	-2.0
10	C=CCn1c(SCc2ccc(C#N)cc2)nnc1-c1ccc(C)cc1	-0.2%	-0.8	-15.6%	11.3	-26.5%	2.2
11	O=C(NCc1ccccc1)c1nc[nH]c1C(=O)N1CCc2ccccc2C1	-3.0%	-0.5	.	11.3	3.0%	.
12	CCCc1cc(=O)oc2cc(C)cc(OCC(=O)NCCCn3ccnc3)c12	3.9%	0.3	0.8%	37.4	-8.8%	0.0
13	CCOc1ccc(-c2cc3c(=O)n(CC(=O)NCc4ccc(F)cc4)ccn3n2)cc1	-2.4%	0.7	.	-15.1	.	.
14	Cc1cccc(OCCNC(=O)c2cc(C3CC3)nc3c2cnn3C(C)C)c1	0.0%	-0.3	-57.0%[inhibitor]	17.9	.	.
15	CCC(=O)N(C)/C=C1\Sc2ccccc2C1=O	6.1%	-0.5	5.3%	-17.1	-6.2%	4.4
16	CCCn1c(N)c(Sc2ccc(C)cc2)c(=O)n(CCC)c1=O	0.5%	-0.4	4.3%	-13.2	7.3%	0.9
17	COC(=O)c1cccc(NC(=O)CSc2nncn2-c2ccccn2)c1	.	-0.2	-1.3%[15.4 µM]	31.1	-16.3%	-5.0
18	CCc1cccc(NC(=O)CCNS(=O)(=O)c2ccc3c(c2)oc(=O)n3C)c1	-0.3%	-0.9	-8.9%	22.3	5.5%	.
19	CCOC(=O)CCCNC(=O)c1cncc(O)c1	31.6µM*	-0.1	0.2%	-2.6	17.9%	1.1
20	CC(=O)N1CCCc2cc(S(=O)(=O)N(C)CCC#N)ccc21	-0.9%	0.6	-2.6%	0.9	7.9%	1.3
21	COc1ccccc1CCC(=O)OCC(=O)NC1CCCC1	.	0.0	10.1%[15.4 µM]	-9.6	7.5%	.
22	O=c1[nH]cccc1-c1nc2ccccc2[nH]1	3.2%	0.0	5.7%	?	0.5%	-3.0
23	Cc1ccc(S(=O)(=O)N2CCN(C(=O)CN3CCCCC3)C2)cc1	-2.5%	1.1	-10.9%	-8.5	4.1%	-0.1
24	CNc1c(NC(=O)c2ccc(OC)c(OC)c2)c(=O)oc2ccccc12	-0.9%	0.4	.	-8.4	.	.
25	CC(=O)Nc1ccc(S(=O)(=O)NC(C(=O)O)C(C)C)cc1 (stereo not drawn)	-1.3%	0.8	-13.4%	2.3	4.5%	.
26	CCOC(=O)c1c(NC(=O)c2cc3nc(-c4ccc(OC)cc4)cc(C(F)(F)F)n3n2)sc(C)c1C	-5.8%	0.0	.	9.5	.	.
27	COc1cccc(/C=N/NC(=O)C(C)n2nc(C)c([N+](=O)[O-])c2C)c1O (stereo not drawn)	-0.5%	-0.8	?	1.6	-6.7%	2.4
28	COC(=O)C1=C(CS(=O)(=O)c2cc(Cl)ccc2OC)NC(=O)NC1c1ccccc1 (stereo not drawn)	-7.4%	-0.4	.	-4.2	.	.
29	O=C(CC(=O)c1ccccc1)Nc1cc([N+](=O)[O-])ccc1Cl	-1.2%	-0.8	3.0%[15.4 µM]	25.2	0.6%	-4.6
30	C[C@H](NC(N)=O)C(=O)Nc1ccc(OCc2ccccc2)cc1	.	1.1	0.0%	-8.0	6.5%	-1.9
31	CC(=O)Oc1cc2cccc(OC(C)=O)c(=O)c2c(OC(C)=O)c1OC(C)=O	0.3%	.	.	.	-21.6%	1.9
32	COC(=O)c1ccc(NC(=O)COc2ccc(C3C(C#N)=C(N)Oc4c3ccc3ccccc43)cc2OC)cc1 (stereo not drawn)	0.0%	0.1	-0.6%	6.5	-8.5%	-1.2
33	CC1=C(C(=O)N(C(C)C)C(C)C)CC(CC(=O)NCc2cccs2)C(=O)N1CCC1=CCCCC1 (stereo not drawn)	0.2%	0.2	.	16.3	.	.
34	O=C(Nc1ccc(S(=O)(=O)N2CCOCC2)cc1)c1ccco1	-0.5%	0.0	8.5%	1.1	12.1%	3.9
35	O=S(=O)(c1ccc(Br)s1)N1CCN(c2ccccn2)CC1	-4.1%	1.6	-6.8%	10.9	-12.5%	-0.9
36	COc1ccccc1N1CCN(C(=O)CCC(=O)O)CC1	.	-1.0	16.1%[15.4 µM]	-4.8	14.3%	-1.6
37	COc1ccc(CNC(=O)c2ccc3c(c2)nc2n3CCCCC2)cc1	0.4%	0.8	.	-24.1	.	.
38	COc1ccc(-n2c(SCCC(=O)O)nnc2-c2ccncc2)cc1	-1.4%	0.1	-41.8%	22.6	6.5%	1.1
39	O=S(=O)(c1ccc(Cl)cc1)N1CCN(Cc2ccncc2)CC1	.	0.7	3.2%	-17.1	8.1%	-1.1
40	CC(C(=O)NCC1(c2ccccc2)CCCC1)N1CCOCC1 (stereo not drawn)	-2.4%	-0.2	-27.8%	6.6	12.3%	-1.3
41	Cc1cc(NC(=O)c2ccc(C)o2)no1	0.2%	0.5	-2.0%[15.4 µM]	-22.0	6.7%	.
42	O=C(NCC(c1ccc(F)cc1)N1CCOCC1)c1ccco1 (stereo not drawn)	-0.8%	0.7	-2.1%[15.4 µM]	15.6	5.4%	.
43	COc1ccc([N+](=O)[O-])cc1NC(=O)COC(=O)C1CC1	.	-0.1	4.7%[15.4 µM]	10.5	11.1%	-0.1
44	CCOc1ccc(C2/C(=C(\O)c3ccc4c(c3)OCCO4)C(=O)C(=O)N2CCCN2CCOCC2)cc1 (stereo not drawn)	-1.3%	0.0	?	-2.2	6.4%	.
45	COc1ccccc1NS(=O)(=O)c1cc(C(=O)N2CC(C)CC(C)C2)ccc1C (stereo not drawn)	1.8%	0.8	8.4%	20.4	-25.9%	-1.1
46	CC(=O)Nc1ccc2nc(NC(=O)c3ccc([N+](=O)[O-])o3)sc2c1	.	0.7	?	9.2	?	2.2
47	COCCCNC(c1ccccc1)c1ccncc1 (stereo not drawn)	-1.0%	0.9	-1.8%	-0.5	10.4%	0.6
48	COc1ccccc1NC(=O)C(C)OC(=O)CN1C(=O)C2CC=CCC2C1=O (stereo not drawn)	.	1.4	12.9%[15.4 µM]	2.5	?	.
49	COC(=O)c1sccc1NC(=O)c1c(C)c(-c2cccc(Cl)c2)nc2ccccc12	-22.2%	0.1	-29.8%	-8.8	4.0%	1.1
50	NC(=O)C1CCN(C(=O)COc2ccc3c4c(c(=O)oc3c2)CCC4)CC1	4.7%	.	.	.	9.8%	1.4

Next section.
No.	compound	ClpP mod	TRPML1 ag	gsp ag	TRPML1 inh	gsp antag	Menin-MLL FL inh
51	O=[N+]([O-])c1ccc(OCC(O)CNCCNc2nccc(C(F)(F)F)n2)cc1 (stereo not drawn)	-2.6%	2.1	-1.3%	-6.8	3.7%	-0.8
52	CN1CCN(c2ccccc2NC(=O)COc2ccc(C3CCCCC3)cc2)CC1	-1.3%	0.8	-65.9%[inhibitor]	-0.7	20.3%	-5.3
53	COc1ccccc1CCNC(=O)COc1cccc2c1OC(C)(C)C2	.	0.8	-2.8%[15.4 µM]	2.0	-20.2%	.
54	O=C(Cn1nc(-c2ccc(F)cc2)ccc1=O)Nc1ccc2c(c1)OCCO2	-2.0%	-0.5	6.3%[15.4 µM]	-2.7	-9.7%	7.1
55	Cc1ccc(C(=O)Cn2nnc3ccccc32)cc1[N+](=O)[O-]	-1.3%	1.1	-17.5%	36.5	-8.0%	-3.7
56	COC(CN(C)C(=O)c1ccc2c(c1)NC(=O)c1ccccc1S2)OC	-1.6%	0.5	-4.0%	-17.0	7.8%	1.4
57	CCCCn1c(N)c(N(Cc2ccccc2OC)C(=O)CSCC(=O)Nc2cccc(C)c2)c(=O)[nH]c1=O	.	0.5	-5.7%[15.4 µM]	-15.4	10.0%	.
58	Cc1ccsc1C(=O)Nc1nc2ccccc2[nH]1	0.6%	-0.5	19.7%	-1.3	-4.6%	1.2
59	Cc1ccc(S(=O)(=O)N2CCC(CN3C(=O)c4cccc5cccc(c45)C3=O)CC2)cc1	25.1µM*	0.8	-26.5%	-27.2	-9.3%[15.4 µM]	-0.4
60	O=C(Cc1ccccc1)NC(=S)Nc1ccc(OC(F)F)cc1	.	2.3	-18.9%	-5.4	-0.7%	0.8
61	Nc1ccc(-c2cc(-c3cccc(N)c3)nc(-c3ccccc3)n2)cc1	-21.2%	0.2	?	4.5	11.7%	1.6
62	O=c1c2c(n3cnnc3n1-c1ccccc1)-c1ccccc1CC21CCCC1	-4.8%	0.2	-3.5%	2.6	-10.7%	6.9
63	Cc1nnc(SCC(=O)Nc2nccs2)n(N)c1=O	0.4%	-0.1	-3.6%[15.4 µM]	36.9	8.0%	-12.2
64	Cc1cccc(OCC(=O)Nc2ccccc2N2CCCC2)c1C	-3.1%	1.5	-12.5%	-1.7	-8.4%	.
65	CCOC(=O)c1c(NC(=O)CSc2nc3c(c(=O)n(C)c(=O)n3C)n2C(C)C)sc(C)c1C	-0.4%	0.6	3.0%	32.1	2.2%	6.9
66	Cc1nc2ccccc2c2c1CC(C(C)(Cl)Br)O2 (stereo not drawn)	-3.8%	.	0.9%	.	-11.8%	1.4
67	CCN(C(=O)Cn1cc(C(C)=O)c2ccccc21)c1ccccc1	-0.9%	-0.3	17.3%	2.1	-13.9%	1.1

Source: PubChem BioAssay
